Screening data deposited in PubChem BioAssay by National Center for Advancing Translational Sciences (NCATS).
VACV mCherry inh – inhibitors of vaccinia virus infection (mCherry reporter signal) | 310,000 tested, 0.63% active | AID 720579 | Vaccinia virus mCherry reporter infection, fluorescence; about a quarter of the inactives have no number | Potency, µM (series often up to 36.5 µM), for the others: at the top dose activity change, negative = inhibition, actives largely listed as inhibitors; active = well fitted inhibition curve with a large enough effect; inconclusive = small, poorly fitted or top-dose-only effect; inactive = no such curve, though single readings can be large or run the other way; tested in A549 cells; note: nearly all actives have a fitted effect of over 35% in size; inactives centre near -10
Vaccinia Venus – inhibitors of vaccinia virus (Venus reporter). Vaccinia virus Venus reporter expression, fluorescence. Potency, µM (doses to about 36.5 µM), for the others: top-dose activity change, negative = inhibition, usual class: inhibitors. 330,000 tested, 0.46% active. AID 720580; active means well fitted inhibition curve with a large enough effect; inconclusive means small, poorly fitted or top-dose-only effect; inactive means no such curve, though single readings can be large or run the other way; tested in A549 cells; note: nearly all actives have a fitted effect of over 30% in size; inactives centre near -10
* = called active by the depositor; i = inactive; ? = inconclusive; . = no result given; [ ] = dose if it differs, or a comment. % is set by controls: 0 for no effect and ±100 for the full control effect; potency is the fitted concentration of half-maximal effect.

SMILES	VACV mCherry inh	Vaccinia Venus
O=C(NCCC1=CCCCC1)C1CCN(S(=O)(=O)c2cnc[nH]2)CC1	-9.5%	-1.0%
CNC(=O)COc1ncnc2sccc12	-6.1%	-5.4%
Cc1cccc(-n2nc(C)c(C(=O)N3CCN(c4ccccc4)CC3)c2-n2cccc2)c1	?	?
O=C(NC1CC1)c1c[nH]c2ccc(S(=O)(=O)Nc3cccc(C(F)(F)F)c3)cc2c1=O	-9.2%[1.46 µM]	-10.9%
O=C(NNC(=O)c1ccncc1)Nc1ccc(Br)cc1	-21.1%	13.1%
COc1cc(F)ccc1-c1cc(C(=O)NCc2ccc(C(F)(F)F)cc2)[nH]n1	21.9%	-1.0%
Cc1c(Cl)cccc1NC(=O)C1CCCN(c2nnc(-n3c(C)ccc3C)s2)C1 (stereo not drawn)	-13.2%	-4.6%
COc1ccc(N2CC(O)=C(c3nc4ccccc4s3)C2=N)cc1	i	-9.9%
Cc1ccc(CCNC(=O)c2cnc3c(C)cccn3c2=O)cc1	-3.5%	-11.5%
Cc1ccc(OCC(=O)Nc2ccc(C(=O)Nc3ccccc3C(=O)O)cc2)cc1C	i	-13.7%
CCOC(=O)N1CCC(NC(=O)c2cnn(-c3ccc(F)cc3)c2-n2cccc2)CC1	-7.3%	-8.4%
COc1ccc(Nc2nc(N3CCN(S(C)(=O)=O)CC3)nc3ccccc23)c(OC)c1	-6.2%	-16.3%
Cc1ccc(C(=O)Nc2ncc3c(Cl)cccc3n2)cc1	-9.2%	-18.3%
O=C(NCc1ccccn1)c1cnc2sccn2c1=O	i	-17.0%
Cc1ccc(C(C(=O)NCc2ccco2)N(C(=O)CNC(=O)c2cccs2)c2c(C)cc(C)cc2C)cc1 (stereo not drawn)	-11.5%	-7.9%
CC(NC(=O)c1ccc(NS(C)(=O)=O)cc1)c1ccccc1 (stereo not drawn)	.	-26.8%
COc1ccc(/C=N/NC(=O)c2ccc3c(c2)OCCO3)cc1[N+](=O)[O-]	-13.9%	-10.3%
O=C1C(=O)c2ccccc2-c2ccccc21	2.82µM*	4.47µM*
COc1ccc(/C=N/NC(=O)C(=O)Nc2ccccn2)cc1OC	.	-13.0%
Nc1c([N+](=O)[O-])cnnc1-c1ccccc1	i	1.3%
Cc1ccc(-c2ccc(SCC(=O)NCC3CCCO3)nn2)cc1 (stereo not drawn)	i	-11.0%
O=C(CNC(=O)C1CCCCC1)Nc1cc(Cl)cc(Cl)c1	-15.6%	-13.4%
CCOC(=O)C(N=Nc1nn[nH]n1)C(C)=O (stereo not drawn)	i	5.9%
COC(=O)c1cc(NC(=O)CN(C)C2CCS(=O)(=O)C2)cc(C(=O)OC)c1 (stereo not drawn)	i	-14.1%
c1ccc(OCc2nc3c4c(ncn3n2)-c2ccccc2CC42CCCC2)cc1	3.1%	1.2%
(next part)
SMILES	VACV mCherry inh	Vaccinia Venus
Cc1cc(C(=O)CSc2nnnn2-c2ccccc2)c(C)n1-c1ccc2c(c1)OCO2	-12.4%	-13.0%
CCC1Oc2ccccc2N(CC(=O)NCCCN2CCCC2)C1=O (stereo not drawn)	i[7.34 µM]	2.3%[7.34 µM]
COc1ccc(N(C(=O)/C=C/c2ccc(OC)c(OC)c2)C2=CC3CCC(C2)N3C)cc1 (stereo not drawn)	i	-19.7%
Cn1cc(C=C2C(=O)OC3(CCCCC3)OC2=O)c2ccccc21	-12.7%	-12.7%
CCN(CC)c1ccc(/C=N/OC(C)C(=O)Nc2ccc(C)cc2)cc1 (stereo not drawn)	i	-19.5%
CCOc1ccc(NC(=O)CSc2nnc(NC(=O)C3CC3)s2)cc1	3.3%	1.5%
CN(C)S(=O)(=O)Nc1ccc(-c2cn3ccsc3n2)cc1	?	-23.3%
O=C(NCc1ccccc1)c1ccc(-c2ccccc2C(F)(F)F)o1	i	-3.7%
CCC(C)(C)C1CCc2c(sc(NC(=O)c3ccccc3C(=O)O)c2C#N)C1 (stereo not drawn)	-15.0%	12.7%
CN(C)CCOC(=O)Cc1ccc(Cl)cc1	-5.1%	3.6%
O=C(NNS(=O)(=O)c1ccc(F)c(Cl)c1)c1cccc(S(=O)(=O)N2CCOCC2)c1	-7.7%	3.5%
O=C1c2oc3ccccc3c(=O)c2C(c2cccc(O)c2)N1Cc1ccc(F)cc1 (stereo not drawn)	-4.4%	-7.6%
O=C(NCCCN1CCCC1=O)c1ccc2c(c1)ncn2C1CCCCC1	i	-16.5%
Cn1cnnc1SCC(=O)NC(=O)NC1CCCC1	-5.6%	2.3%
Cc1cccc(N2C(N)=C(C#N)C(C#N)(C#N)C2c2ccccc2)c1 (stereo not drawn)	.	1.1%
CS(=O)(=O)N1CCn2c1nc1ccccc12	-0.1%	3.2%
COc1ccc(C(=O)OCC(=O)NC(=O)NC2CCCC2)c(OC)c1	-6.8%	-13.7%
COC(=O)c1cc(O)cc(OC)c1C(=O)c1c(O)cc(C)cc1O	-11.4%	-1.7%
CN(C)c1ccc(C(=O)NCC(c2cccs2)N2CCOCC2)cc1[N+](=O)[O-] (stereo not drawn)	-19.6%	-12.3%
NS(=O)(=O)c1ccc(NC(=O)Cn2nc(C(=O)O)c3ccccc3c2=O)cc1	-17.1%	-0.2%
COc1ccc(OC)c(S(=O)(=O)Nc2ccc(O)c3ccccc23)c1	.	6.7%
Cc1cccnc1NC(=O)c1cccc(S(=O)(=O)N2CCN(c3ccccc3)CC2)c1	-13.1%	-0.8%
CCC(Sc1nc(=O)cc(N)n1CCc1ccccc1)C(=O)Nc1ccccc1C#N (stereo not drawn)	19.3%	26.7%
O=C(Nc1cccc(Cl)c1)c1cc(S(=O)(=O)N2CCC3(CC2)OCCO3)ccc1F	-2.1%	-7.1%
Cc1nn(C)c(Cl)c1C(=O)NCC(=O)NCc1ccccc1	i	-2.6%

Whole records, quoted from the list:
O=C(NCc1ccccc1)c1ccc(-c2ccccc2C(F)(F)F)o1 as listed: VACV mCherry inh: i; Vaccinia Venus: -3.7%
O=C(Nc1cccc(Cl)c1)c1cc(S(=O)(=O)N2CCC3(CC2)OCCO3)ccc1F as listed: VACV mCherry inh: -2.1%; Vaccinia Venus: -7.1%

Additional records:
SMILES	VACV mCherry inh	Vaccinia Venus
CC1(C(=O)NCc2ccccc2)Cc2c(-c3ccccc3)ccnc2O1 (stereo not drawn)	?	-18.0%
CC1C(=O)O[C@@H]2C[C@@H](C)[C@@H]3CCC(=O)[C@@]3(C)[C@@H](O)[C@H]12 (stereo partly drawn)	i	1.1%
CC1(C)CC(=O)C=C(NCc2ccccc2)C1	i	-10.6%
COCCn1nnnc1C(c1cccc(OC)c1OC)N1CCN(C(=O)c2ccco2)CC1 (stereo not drawn)	-7.3%	3.6%
CC(C)Cn1c(=O)c(C(=O)Nc2cnccn2)c(O)c2ccccc21	-2.8%	10.7%
Cc1cccc(C(=O)N2CCc3cc(CNC(=O)c4ccc(Br)o4)ccc32)c1	-26.0%	-27.3%
O=C(CCOc1ccccc1)Nc1ccnn1C1CCN(Cc2ccc(F)cc2)CC1	-21.0%	?
NS(=O)(=O)c1cc(C(=O)OCC(=O)NC2CC2)ccc1Cl	.	?
CC(=O)c1ccc(NC(=O)C2CCCN2S(=O)(=O)c2cccc3cccnc23)cc1 (stereo not drawn)	48.9%[activator]	-1.2%
COc1ccc(CC(=O)NCC(=O)Nc2ccccc2Br)cc1	-18.8%	-15.2%
CCOc1ccc(-c2nc3scc(-c4cccs4)c3c(=O)[nH]2)cc1	i	-5.2%
CCOc1ccc(CNC(=O)C2CCN(Cc3cc4ccccc4n3Cc3ccccc3C)CC2)cc1	-11.8%	-10.2%
CC(=O)N1CCCc2cc(S(=O)(=O)N(Cc3ccccc3)C(C)C)ccc21	?	-24.6%[7.34 µM]
Cc1cc(C(=O)CSc2nnnn2C)c(C)n1C1CC1	i	-1.9%
CCS(=O)(=O)Nc1ccc(-c2cn3ccsc3n2)cc1	-11.9%	-11.1%
CCCCNC(=O)C[C@@H]1C[C@@]2(C(=O)OCC)CCCC=C2N(Cc2ccco2)C1=O	-0.7%	-1.8%
Cc1cc(C(=O)c2cnc(/N=C/N(C)C)s2)c(F)cc1Cl	i	-3.5%
Cc1ccnc(NC(=O)c2cccc(OC(F)F)c2)n1	-5.4%	10.5%
CCN(CC)C(=O)c1cc2cc([N+](=O)[O-])ccc2s1	.	-6.6%
Cn1c(SCc2ccccc2)nnc1-c1cccs1	.	-15.2%
COC(=O)[C@@]12C[C@@H](CC(=O)NCc3cccc4ccccc34)C(=O)N(Cc3ccco3)C1=CCC(C)(C)C2	?	?
OCCNc1ncnc2c1ncn2[C@H]1CN(C2CCCC2)C[C@@H](CO)O1	13.5%	8.6%
O=C(c1ccc(COc2ccccc2Br)o1)N1N=C(C(F)F)CC1(O)C(F)F (stereo not drawn)	-8.5%	?
COc1ccc(CCN=C(C)C2=C(O)C(c3ccccc3)OC2=O)cc1OC (stereo not drawn)	-9.3%	-16.7%
CCOC1(OCC)N=C(N)C2(C#N)C(c3cccc(C)c3)C12C#N (stereo not drawn)	.	-9.5%
(further entries)
SMILES	VACV mCherry inh	Vaccinia Venus
CCCCN(C(=O)CSc1nc(CCC)cc(=O)[nH]1)c1c(N)n(Cc2ccccc2)c(=O)[nH]c1=O	i	-10.7%
Cc1ccc(Cn2c(SCC(=O)N3CC(=O)Nc4ccccc43)nc3ccccc3c2=O)cc1	?	-29.4%
CN1CCOCCOCCOCCN(C)C1=S	-9.4%	-10.7%
Cc1cc(C)cc(C(=O)N2CCC(CCC(=O)NC3CC3)CC2)c1	-14.0%	-19.5%
O=C(NC1CCCCC1)C(c1cccs1)N(CCCN1CCOCC1)C(=O)c1ccc(-c2ccccc2)[nH]1 (stereo not drawn)	-22.8%	-20.0%
CC(c1ccccc1)C1C(C#N)=C(N)SC(N)=C1C#N (stereo not drawn)	.	-11.0%
CN(Cc1ccccc1)c1ccc(-c2nc(-c3ccccc3)no2)cc1[N+](=O)[O-]	-7.1%	-2.3%
O=C(CN1CCCCCCC1)NC(=O)NC1CCCCC1	-14.8%	-24.2%
Cc1cccc(N2CC(C(=O)O)CC2=O)c1 (stereo not drawn)	-10.2%	-9.4%
COC(=O)NC(NC(=S)Nc1ccccc1OC)C(Cl)(Cl)Cl (stereo not drawn)	-0.3%	-19.8%
CC(C)(C)Nc1cccccc1=O	-22.3%	-11.8%
O=C(Nc1nnc([C@@H]2C[C@H](O)[C@@H](CO)O2)s1)c1cccc(Cl)c1	i	-4.6%
CC(=O)Nc1cc(-c2ccc(C(=O)N3CCOCC3)cc2)cn2c(-c3ccc(S(C)(=O)=O)cc3)cnc12	5.8%	0.7%
COc1ccc(S(=O)(=O)N2CCC(O)(c3ccc(Cl)cc3)CC2)cc1OC	i	-11.7%
CCOc1ccccc1NC(=O)NCc1ccccn1	i	-15.9%
CC(=O)Nc1ccc(S(=O)(=O)NCC2CCC(C(=O)NCCC(C)C)CC2)cc1 (stereo not drawn)	.	-17.1%
COc1ccc2oc(C(=O)OCC(=O)N(Cc3ccccc3)C(C)(C)C)c(C)c2c1	-14.4%	-4.4%
COc1ccc(-n2ccc(=O)c(C(=O)O)n2)c(OC)c1	i	-15.4%
O=C(NCC(=O)N1CCN(c2ccccc2F)CC1)c1ccc(Br)o1	i	-15.1%
Nc1c(Cl)cc(Cl)cc1C(=O)OCC(=O)NC1CC1	-10.1%	-3.6%
C=CCS/C(=N\n1cnc2ccccc2c1=O)N1CCCCC1	i	-15.9%
O=C(C1CCC(CNS(=O)(=O)c2cccc3cccnc23)CC1)N1CCCC1 (stereo not drawn)	i	-11.6%
CC1(c2nnc(Cc3ccccc3)o2)CC(c2ccccc2F)=NO1 (stereo not drawn)	-1.2%	-2.9%
CCOc1ccc(NS(=O)(=O)c2csc(C(N)=O)c2)cc1	-16.4%	-16.9%
Cc1ccc(C(=O)C2CCN(CC(=O)NC3CCCC3)CC2)cc1	?	-14.6%

3 entries drawn at random from the list so far, as already listed:
SMILES	VACV mCherry inh	Vaccinia Venus
CC1(c2nnc(Cc3ccccc3)o2)CC(c2ccccc2F)=NO1 (stereo not drawn)	-1.2%	-2.9%
O=C(C1CCC(CNS(=O)(=O)c2cccc3cccnc23)CC1)N1CCCC1 (stereo not drawn)	i	-11.6%
Cc1ccc(Cn2c(SCC(=O)N3CC(=O)Nc4ccccc43)nc3ccccc3c2=O)cc1	?	-29.4%

(more compounds)
SMILES	VACV mCherry inh	Vaccinia Venus
Cc1nn(C(=O)c2ccco2)c(C)c1Sc1ccccc1	.	-8.0%
OC(COCCOc1ccc(Br)cc1)CN1CCCCC1 (stereo not drawn)	-14.2%	-13.2%
COC(=O)[C@]1(Cc2ccccc2)N[C@H](CN(C)C(=O)Nc2ccc(OC)cc2)[C@@H]2C(=O)N(Cc3ccccc3)C(=O)[C@@H]21	-2.2%	-24.7%
O=C(COc1cccnc1[N+](=O)[O-])NCCc1ccc(F)cc1	-9.1%	-5.4%
Cc1ccc2c(c1)C(O)(CC(=O)/C=C/C=C/c1ccccc1)C(=O)N2 (stereo not drawn)	-15.5%	-6.3%
COc1ccc(N(CC(=O)N2CCN(c3ccccc3)CC2)S(=O)(=O)c2ccccc2)cc1	-23.0%	-17.0%
CC(C)CC(COCc1ccc(C(F)(F)F)cc1)N1CCN(C(=O)c2ccc(C(F)(F)F)cc2)CCC1=O (stereo not drawn)	-3.8%	-21.1%
CCc1ccc(OC(=O)c2ccn(CC)n2)cc1	.	3.4%
Cc1ccc([C@H]2C[C@H](O)[C@@H](n3cc(C4CC4)nn3)CN2C(=O)c2cccs2)cc1	-10.3%	-17.2%
COc1ccccc1OCC(=O)NC1CCCCCCC1	-18.4%	?
O=C(CCN1CCN(c2ccccc2)CC1)Nc1ccc(Cl)cc1	-1.7%	-19.8%
O=C(NCCc1ccccc1)c1ccccc1NC(=O)C1CCCO1 (stereo not drawn)	i	-2.0%
